RecA intein inh: Mtb RecA intein splicing inhibitors, primary screen, biochemical, fluorescence, HTS; hit rate 0.75% among 290,000; inhibition, %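 (about 9 µM by stock and volumes)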; AID 2221, 2009; cell-free RecA intein splicing; in the data active = inhibition above about 30%; inconclusive = no clear call, values can overlap the other calls;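 also: 0% = vehicle wells and 100% = reference inhibitor control wells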
Target sequence (P9WHJ3 whole entry, looked up): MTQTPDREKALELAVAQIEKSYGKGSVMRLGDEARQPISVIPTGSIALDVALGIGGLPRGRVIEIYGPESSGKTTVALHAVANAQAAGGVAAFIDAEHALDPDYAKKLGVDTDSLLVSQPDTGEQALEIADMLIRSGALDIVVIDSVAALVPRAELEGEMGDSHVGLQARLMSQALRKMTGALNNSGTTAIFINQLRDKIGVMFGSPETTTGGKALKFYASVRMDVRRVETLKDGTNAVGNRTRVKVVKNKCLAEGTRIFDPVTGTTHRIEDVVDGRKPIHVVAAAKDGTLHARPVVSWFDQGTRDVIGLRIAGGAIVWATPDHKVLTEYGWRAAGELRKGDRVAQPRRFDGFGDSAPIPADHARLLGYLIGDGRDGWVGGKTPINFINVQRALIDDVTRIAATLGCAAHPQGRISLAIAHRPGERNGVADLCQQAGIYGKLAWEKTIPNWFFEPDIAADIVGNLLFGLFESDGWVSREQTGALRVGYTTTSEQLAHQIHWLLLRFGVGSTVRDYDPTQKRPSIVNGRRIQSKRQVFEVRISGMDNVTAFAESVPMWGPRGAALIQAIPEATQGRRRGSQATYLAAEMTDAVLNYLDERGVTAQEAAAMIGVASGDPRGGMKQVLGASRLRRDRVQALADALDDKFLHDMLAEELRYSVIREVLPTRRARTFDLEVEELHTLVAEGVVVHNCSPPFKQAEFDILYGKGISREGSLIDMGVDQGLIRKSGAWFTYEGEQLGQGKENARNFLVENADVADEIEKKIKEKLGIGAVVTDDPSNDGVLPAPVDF
Mtb H37Rv: M. tuberculosis H37Rv growth inhibitors, H37Rv strain (AID 1626). M. tuberculosis H37Rv growth inhibition; higher % means a stronger effect. inhibition, % at 10 µM, or IC50 in µM where a hit was titrated. hit rate 0.95% among 220,000;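 active = confirmed in a dose series; inconclusive = inhibition above 80% but not taken into the dose series; inactive = below 80% or under 30% at every dose of the series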;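 also: bacteria incubated seven days before Alamar blue readout; 0% = bacteria only wells and 100% = bacteria with antibiotic wells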
YopH PTP inh: YopH tyrosine phosphatase inhibitors, primary screen, biochemical, fluorescence Ex485/Em525. YopH tyrosine phosphatase [Yersinia enterocolitica]. inhibition, %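 (about 10 µM by stock and volumes)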. hit rate 0.16% among 140,000. AID 898, 2007;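 active = inhibition of 50% or more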;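 also: controls were vehicle for no effect and minimum signal wells for full effect; inactives centre near -20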
Arbovirus inh: antivirals against arbovirus infection, primary screen, cell-based, full library, 10K replicate subset; arbovirus infection cell-based antiviral screen; inhibition, % at 10 µM; hit rate 0.37% among 200,000; AID 1251, 2008;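 active = inhibition from about 30%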;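 also: bluetongue infection of BSR cells; cell survival read as ATP light after 72 h; 0% = infected wells without compound and 100% = uninfected wells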
Mtb bLac sens: beta-lactam sensitization of Mtb H37Rv, H37Rv; M. tuberculosis H37Rv growth with meropenem, percent inhibition; hits of this screen are not shown here; inhibition, % at 25 µM; hit rate 0.27% among 330,000; AID 434955, 2010;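 active = about 74% or more and at least 40 points above the plate without the antibiotic, then above 30% in a dose series; inconclusive = first-round hits that could not be retested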;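 also: growth measured after seven days incubation then overnight dye step; 0% = bacteria only wells and 100% = bacteria with antibiotic; twin plates without the antibiotic show which effects depend on it; some results filed as inactive read as strong as hits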
Arbovirus inh repeat: second read-out of Arbovirus inh, no call of its own (marks repeat the call); inhibition, %; measured here: 10K subset replicate screen; many hits read low in the repeat;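 first of two repeat runs on a subset; 0% = infected and 100% = uninfected wells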
The depositor's hits bear a star; ? = inconclusive; . = not tested or not shown; & = joins results of further samples.

SMILES | RecA intein inh | Mtb H37Rv | YopH PTP inh | Arbovirus inh | Mtb bLac sens | others
CCCc1[nH]nc2c1C(c1ccc(OC)c(Cn3nnc4ccccc43)c1)C(C#N)=C(N)O2 (stereo unspecified) | 70* | -1% | -30 | 0 | 3
CCOc1ccc2[nH]c(C)c(CN3CCCCCC3)c(=O)c2c1 | -0.6 | . | . | . | 14
Cn1c(/C=N/O)nc2ccccc21 | -2.2 | -7% | . | . | 1
O=C(CCl)N1c2ccccc2SCC1c1ccccc1 (stereo unspecified) | 25 | . | . | . | 99
Cc1ccc2nc(Cl)c(/C=N/n3c(C)nnc3C)cc2c1 | -1.6 | 4% | . | 9 | 3
NS(=O)(=O)c1ccc(CCNC(=O)c2cc(-c3cc(Cl)ccc3O)n[nH]2)cc1 | -2.3 | -10% | . | . | -1
O=C(O)C1CCCCN1S(=O)(=O)c1cccc2nsnc12 (stereo unspecified) | -8.3 | 0% | 5 | 4 | 3
O=S(=O)(c1cccc(S(=O)(=O)N2CCC(N3CCCCC3)CC2)c1)N1CCOCC1 | -2.3 | 12% | -39 | -3 | .
CCN(/N=C/c1ccc(N(C)C)cc1)c1nc2ccccc2[nH]1 | 0.5 | 9% | -19 | -10 | .
CCOC(=O)c1ccccc1NC(=O)COC(=O)CCNS(=O)(=O)c1ccccc1 | 2.3 | . | . | . | 1
COc1cccc(/C=N/n2c(-c3cc(C)[nH]n3)n[nH]c2=S)c1O | -1.7 | -8% | . | . | -4
COc1cccc(-n2c(SCC(=O)N3CCOCC3)nc3c([nH]c4ccccc43)c2=O)c1 | 0.5 | -6% | -108 | . | -3

Of the compounds above, these contain an aryl methoxy group.
SMILES | RecA intein inh | Mtb H37Rv | YopH PTP inh | Arbovirus inh | Mtb bLac sens | others
CCCc1[nH]nc2c1C(c1ccc(OC)c(Cn3nnc4ccccc43)c1)C(C#N)=C(N)O2 (stereo unspecified) | 70* | -1% | -30 | 0 | 3
COc1cccc(/C=N/n2c(-c3cc(C)[nH]n3)n[nH]c2=S)c1O | -1.7 | -8% | . | . | -4
COc1cccc(-n2c(SCC(=O)N3CCOCC3)nc3c([nH]c4ccccc43)c2=O)c1 | 0.5 | -6% | -108 | . | -3

5 entries picked at random from those above:
SMILES | RecA intein inh | Mtb H37Rv | YopH PTP inh | Arbovirus inh | Mtb bLac sens | others
COc1cccc(/C=N/n2c(-c3cc(C)[nH]n3)n[nH]c2=S)c1O | -1.7 | -8% | . | . | -4
O=S(=O)(c1cccc(S(=O)(=O)N2CCC(N3CCCCC3)CC2)c1)N1CCOCC1 | -2.3 | 12% | -39 | -3 | .
COc1cccc(-n2c(SCC(=O)N3CCOCC3)nc3c([nH]c4ccccc43)c2=O)c1 | 0.5 | -6% | -108 | . | -3
CCOc1ccc2[nH]c(C)c(CN3CCCCCC3)c(=O)c2c1 | -0.6 | . | . | . | 14
O=C(CCl)N1c2ccccc2SCC1c1ccccc1 (stereo unspecified) | 25 | . | . | . | 99

More structures:
SMILES | RecA intein inh | Mtb H37Rv | YopH PTP inh | Arbovirus inh | Mtb bLac sens | others
COC(=O)C(Cc1ccc(O)cc1)NC(=O)CCOc1ccc(OC)cc1 (stereo unspecified) | -0.8 | . | . | . | 7
CCOc1cc2[nH]c(=S)n(CCCN(CC)CC)c(=O)c2cc1OCC | -0.3 | -9% | -41 | -19 | -18
CN(Cc1cccc(Cl)c1)C(=O)C1CSC2(C)CCC(=O)N12 (stereo unspecified) | 0.4 | . | . | . | -19
N#C/C(=C\C=C\c1ccccc1)C(=O)N1CCCC1 | 3.3 | . | . | . | -1
COc1ccc(C(=O)CCC(=O)NCCc2c[nH]c3ccccc23)cc1OC | 2.0 | . | . | . | 5
O=C(Nc1ccccc1NC(=O)c1ccco1)c1ccco1 | -0.3 | -2% | -53 | 5 | ?
O=c1[nH]cc(C(F)(F)F)cc1NS(=O)(=O)c1ccccc1[N+](=O)[O-] | 7.1 | 19% | . | 16 | 6
COc1ccc(N2CCN(C(=O)CN3C(=O)NC(c4ccc(OC)cc4)(c4ccc(OC)cc4)C3=O)CC2)cc1 | 5.1 | . | . | . | 65
COCc1cc(=O)n2[nH]c(-c3ccccc3)cc2n1 | 0.5 | 2% | -9 | -6 | 4
CCOC(=O)c1c(S(=O)(=O)NCc2ccc(OC)cc2)c(C)n(C)c1C | -1.7 | . | . | . | 5
COc1ccc(N2CCN(C(=O)COC(=O)CCc3ccccc3OC)CC2)cc1 | -2.6 | . | . | . | -5
O=C(NCc1cccs1)C1CCCN1C(=O)NC1CCCCC1 (stereo unspecified) | -2.9 | -3% | -34 | 1 | 4
CC(C)c1cc(CN2CCOCC2)cc(C(C)C)c1O | 0.5 | 4% | . | . | -7
CCCOC(=O)c1sc2nc3c(cc2c1N)C(=O)CCC3 | 0.1 | -6% | -51 | -1 | -1
COc1cccc(N2CCN(C(=O)c3cccn4c(=O)c5c(C)c(C)sc5nc34)CC2)c1 | -55 | 8% | . | 1 | -1
CCCN(c1ccccc1F)S(=O)(=O)c1cc(-c2cc(C)no2)ccc1OC | 13 | . | . | . | 2
COc1cc(Cl)c(C)cc1NC(=O)CNC(C)c1ccccc1OC (stereo unspecified) | 12 | 21% | . | 26 | 3
COc1cccc(C(=O)Nc2cccc(OC(C)=O)c2)c1 | 2.8 | -16% | -11 | 0 | 6
O=C(N/N=C\c1ccccn1)C1COc2cc3ccccc3cc2O1 (stereo unspecified) | 2.6 | 2% | 11 | -14 | 67
OCCOCCn1c2ccccc2c2ccccc21 | -0.9 | -3% | -40 | -2 | -1
O=c1[nH]nc(-c2ccccc2)cc1-c1ccccc1 | -1.6 | . | . | . | -5
Cc1[nH]c(=O)[nH]c(=O)c1S(=O)(=O)Nc1ccc(Oc2ccccc2)cc1 | -4.4 | 0% | -28 | -4 | -4
COc1ccc(NC(=O)C2=C(C)NC(=O)NC2c2cccs2)c(OC)c1 (stereo unspecified) | 5.5 | -1% | . | 2 | 4
C[C@H]1CC[C@]2(O[C@H](CCO)C[C@@H](O)[C@@H]2O)O1 | 1.0 | -2% | . | . | 1

As a working copy, some entries already given.
SMILES | RecA intein inh | Mtb H37Rv | YopH PTP inh | Arbovirus inh | Mtb bLac sens | others
OCCOCCn1c2ccccc2c2ccccc21 | -0.9 | -3% | -40 | -2 | -1
O=c1[nH]nc(-c2ccccc2)cc1-c1ccccc1 | -1.6 | . | . | . | -5
Cc1[nH]c(=O)[nH]c(=O)c1S(=O)(=O)Nc1ccc(Oc2ccccc2)cc1 | -4.4 | 0% | -28 | -4 | -4
COc1ccc(NC(=O)C2=C(C)NC(=O)NC2c2cccs2)c(OC)c1 (stereo unspecified) | 5.5 | -1% | . | 2 | 4

Following part.
SMILES | RecA intein inh | Mtb H37Rv | YopH PTP inh | Arbovirus inh | Mtb bLac sens | others
Cc1ccccc1N/C(=N/S(=O)(=O)c1cc(F)ccc1F)c1ccccc1 | 3.4 | . | . | . | -1
CC(=C/c1ccccc1)/C=N/NC(=O)CSc1nc(C)cc(C)n1 | -1.0 | 1% | -12 | 2 | -2
Cc1nc2cc(C(F)(F)F)ccc2n1C1CCN(CC(=O)N2CCOCC2)CC1 | 3.0 | -2% | -8 | 6 | -12
CC(=O)c1ccc(NC(=O)Nc2ccc(NS(=O)(=O)c3ccc(C)cc3)cc2)cc1 | 11 | 12% | -48 | 0 | -10
Cc1ccccc1N(CC(=O)NCc1ccc2c(c1)OCO2)C(=O)C1CSC(=O)C1 (stereo unspecified) | 0.3 | . | . | . | -3
CSc1ccc(/C=N/NC(=O)c2cc(O)cc(O)c2)cc1 | -1.1 | -3% | -17 | -2 | 0
CCCCCCCCNc1nc(Cl)nc(NCCN2CCOCC2)n1 | . | -3% | . | -9 | 5
COc1cc(CN2CCN(Cc3cccc(OC)c3OC)CC2)cc(OC)c1 | 1.9 | . | . | . | -6
CCCCCCCCNC(=O)/C(C#N)=C/c1ccc2c(c1)OCCO2 | 4.8 | 10% | -20 | -1 | 6
Cc1nc2cc(NS(=O)(=O)c3ccccc3)ccc2n1C | -5.1 | -4% | . | -5 | 3
COC(=O)C1=C(C(=O)OC)[C@@H]2N(C)c3ccccc3[C@@]23C[C@@H](C(=O)OC)N(C(=O)c2ccco2)C3=N1 | -2.0 | -10% | . | . | -2
Brc1ccc(-c2nnc3ccc(N4CCN(c5ccccc5)CC4)nn23)cc1 | 3.4 | 0% | -39 | 1 | -8 | Arbovirus inh repeat=-3
COc1ccc(CN(C(=O)c2oc3cc(C)c(C)cc3c2C)C2CCS(=O)(=O)C2)cc1OC (stereo unspecified) | 3.0 | . | . | . | 9
CC(C)(CN1CCCC1)NS(=O)(=O)c1ccccc1 | -0.7 | . | . | . | -3
CC1(C)C(c2ccco2)=[N+]([O-])C2(CCCCC2=O)N1O (stereo unspecified) | 4.8 | -3% | -17 | 7 | -10
CCCN(CCC)CCCNC(=O)c1cc2c(=O)[nH]c3ccccc3c2s1 | 1.2 | . | . | . | -6
COc1cc(NC(=O)NNC(=O)c2cc3occc3n2C)cc(OC)c1OC | 5.3 | . | . | . | -3
CNC(=S)N/N=C(\C)c1ccc(N2CCOCC2)cc1 | 1.1 | ? | 6 | 5 | .
Cn1c(=N)n(CC(=O)c2cccs2)c2ccccc21 | 0.3 | -12% | -31 | 0 | -7
O=C(O)/C=C/C(=O)Nc1ccc(S(=O)(=O)Nc2nccs2)cc1 | -2.8 | . | . | . | 0
CCOC(=O)c1sc(C)c2c1NC(C)(c1cccc3ccccc13)NC2=O (stereo unspecified) | -2.7 | 0% | -13 | 13 | 28
Fc1ccccc1CN1CCCN(C(=S)Nc2cccc(Cl)c2)C1 | 3.4 | -6% | . | -20 | 7
CCOc1ccc(Cl)cc1S(=O)(=O)NCc1cccnc1 | . | -6% | -13 | 0 | -7
CC(Sc1nc(C2CC2)n(-c2ccccc2)n1)C(=O)c1c(N)n(C)c(=O)n(C)c1=O (stereo unspecified) | -0.3 | . | . | . | -11
COc1ccc(NC2=NC3(CCCCC3)N=C(N)N2)cc1 | 1.1 | -10% | -9 | 0 | -4
O=C(c1ccc(Oc2ccccc2)cc1)C1CCCN(C(=O)c2cnccn2)C1 (stereo unspecified) | 0.9 | -4% | . | . | -3
Cc1ccn2c(c1)nc(=O)c1cc(S(=O)(=O)N3CCC(C)CC3)ccc12 | -1.3 | . | . | . | 2
O=C(CSc1nc2ccccc2c(=O)n1CCC(=O)N1CCN(c2ccccc2)CC1)NCC1CCCO1 (stereo unspecified) | 2.0 | -8% | . | 4 | 4
COCCN=c1scc(-c2cc(OC)ccc2OC)n1/N=C/c1c[nH]c2ccccc12 | -1.2 | 16% | -19 | -26 | -2
Cc1cccc(NC(=O)c2oc3c(c2C)C(=O)CC(C)(C)C3)n1 | 0.6 | 3% | -6 | 3 | 37
CCc1ccc(N(CC)C(=O)c2cn(C)c(=O)c3ccccc23)cc1 | 12 | . | . | . | 4
CCN(CC)CCC(O)(c1ccccc1)C1CCCCC1 (stereo unspecified) | -2.7 | . | . | . | 0
Cn1nc(C(=O)NNc2c(F)c(F)cc(F)c2F)c2ccccc2c1=O | -0.9 | 2% | . | 10 | -8
Cc1cc(C)c[n+](-c2nc3ccccc3nc2C(=C=[N-])C#N)c1 | -1.0&-1.3 | 5%&4% | -4 | 10&8 | -5&6
COc1ccc(OCCOC(=O)Nc2ccccc2)cc1 | 4.9 | 6% | -9 | -1 | -6 | Arbovirus inh repeat=16
CCCCN(C(=O)c1ccccc1OCc1ccc(F)cc1)c1c(N)n(CC(C)C)c(=O)[nH]c1=O | 7.8 | . | . | . | -7
Cc1ccc2c(c1)C(=O)c1c(C(=O)O)cccc1-2 | -3.7 | -3% | . | 2 | 5
O=C1NC(=O)/C(=C/c2ccc(N3CCOCC3)o2)N1 | -5.6 | 0% | . | . | -11
COCCCn1c(C(=O)NCCN2CCOCC2)cc2c(=O)n3cccc(C)c3nc21 | -58 | . | . | . | 8
Cc1cc(NC(=O)c2ccc3c(c2)C(=O)N(CC(C)C)C3=O)no1 | . | 1% | . | . | 40
Cc1ccc(-n2c(C)cn(C(=O)c3ccccc3)c2=S)cc1 | 5.4 | 6% | -90 | -19 | 13
Cc1ccc(-n2c(Cc3cccn3C)nnc2SCC(=O)NCc2ccco2)cc1 | 2.6 | 3% | -33 | 0 | -2
Nc1ncnc2nc(SCc3ccc(Cl)cc3Cl)[nH]c12 | 5.4 | . | -4 | -23 | 1
COc1ccc(C(=O)NC2(C(F)(F)F)C(=O)N(Cc3ccco3)C3=C2C(=O)CC(C)(C)C3)cc1OC (stereo unspecified) | 0.1 | -6% | -9 | 5 | 3
Cc1cc(C)n(CC(=O)N/N=C/c2ccc(C)o2)n1 | -0.2 | -12% | -9 | 1 | -5

From PubChem

This is a subset; the hit share may differ from the screen's.
